UUG fidelity = yeast start codon fidelity modulation | S. cerevisiae UUG-firefly luciferase reporter, luminescence/redox ratio | activity score, % at 18.7 µM | 350,000 tested, 0.13% active | AID 602363;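 active = replicate mean at a twofold rise or more, about +100% in these data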;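 also: firefly luciferase made from a UUG start codon reports start codon fidelity; reporter light over untreated wells divided by growth signal over untreated wells; some hits fall short of that in this replicate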
Env fusion inh = HIV envelope-mediated fusion inhibition | HeLa-JRFL Env/CEM21 cell fusion, luciferase | inhibition, % at 12.3 µM | 360,000 tested, 1.1% active;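 active = mean replicate inhibition score of at least 50 and every replicate individually at or above 50; inconclusive = only one of the two criteria met; inactive = mean below 50 and not all replicates reaching 50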;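 also: 0% = plate neutral controls and 100% = maraviroc near 300 nM; one replicate is shown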
eIF4H inh = inhibitors of RNA binding by human eIF4H; 290,000 tested, 0.94% active; AID 2012; eIF4H fluorescence polarization binding assay; inhibition, % at 35 µM;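 active = 50% or more with normal probe brightness, or confirmed in later tests; inconclusive = above 50% with abnormal brightness, or retests that disagree; inactive = below 50% or failed in later tests; about a fifth of its hits are not listed in these tables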;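 also: calls also rest on retests at 20 µM and on dose response follow-up; 0% = protein and probe with vehicle and 100% = probe without protein; strong numbers were not always called active; many hits fall short of the cut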
CSC inhib = cancer stem cell inhibition; cancer stem cell-like cells viability, luminescence; 300,000 tested, 1.1% active; AID 2717; inhibition, % at 7.5 µM;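 active = mean at 75% or more and at least half the replicates too; inconclusive = mean and replicates disagree; tested in HMLE shEcad cells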;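 also: 0% = median of negative and 100% = median of positive control wells; the first replicate is given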
MT1-MMP act inh = inhibitors of human MT1-MMP activation | GFP/RFP ratio change, % at 20 µM | HT1080 RFP-PRO-GFP cells, GFP/RFP ratio fluorescence, overnight; percent of plate control window, DMSO zero | 360,000 tested, 0.061% active;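 active = GFP/RFP ratio change of at least 30% with cell ATP level not reduced by more than half and red fluorescence within 50% of control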; also: strong numbers were not always called active
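Assay system: HT1080 cells carrying an RFP-PRO-GFP reporter | Dosing: Single dose of 20 µM compound, 1% DMSO final | Incubation: Cells overnight before dosing, compound overnight, 37 °C, 5% CO2 | Evaluation: GFP/RFP fluorescence ratio | Control set: DMSO and RFP-L50D-GFP cell wells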
Rce1 inhib = yeast Ras-converting enzyme inhibition. yeast membranes, quenched prenylated peptide cleavage fluorescence. AID 2563. calls only. 290,000 tested, 0.27% active;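 active = fall in fluorescence gain of 50% or more versus controls, with final raw signal at or below 3038400; inconclusive = same 50% fall but final raw signal above 3038400; inactive = fall in fluorescence gain under 50%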;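 also: plate controls were neutral control wells for no effect and wells lacking membranes for full effect; tested at 10 µM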
Target sequence (Q03530 whole entry, looked up): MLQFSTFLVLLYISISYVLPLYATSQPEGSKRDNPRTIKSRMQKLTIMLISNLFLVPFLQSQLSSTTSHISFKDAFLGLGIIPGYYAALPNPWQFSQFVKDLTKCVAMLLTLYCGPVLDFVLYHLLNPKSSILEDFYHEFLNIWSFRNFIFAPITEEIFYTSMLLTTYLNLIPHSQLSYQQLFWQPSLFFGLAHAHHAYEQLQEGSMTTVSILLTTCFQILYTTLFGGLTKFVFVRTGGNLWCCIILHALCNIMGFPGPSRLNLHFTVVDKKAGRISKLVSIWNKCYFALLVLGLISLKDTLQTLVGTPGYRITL
PABP polyA inh = PABP-poly(A) binding inhibition. P11940. inhibition, % at 35 µM. AID 2014. 290,000 tested, 1% active. PABP-poly(A) RNA binding, fluorescence polarization;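 active = 50% or more with normal probe brightness, or confirmed in later tests; inconclusive = above 50% with abnormal brightness, or retests that disagree; inactive = below 50% or failed in later tests; about a fifth of its hits are not listed in these tables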;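 also: calls also rest on retests at 20 µM and on dose response follow-up; controls were probe without protein and protein plus probe with vehicle; some compounds called inactive have numbers as strong as hits; many hits fall short of the cut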
MT1-MMP act inh RFP = also measured in MT1-MMP act inh; calls as there; RFP signal change, %; measured here: RFP expression control read;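 0 = vehicle wells; hits needed this value within 50% of zero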
The depositor's hits bear a star; i = inactive; ? = inconclusive; . = no result given. Compounds as they come, and some 2.9% of all compounds hit somewhere here.

SMILES	UUG fidelity	Env fusion inh	eIF4H inh	CSC inhib	MT1-MMP act inh	MT1-MMP act inh RFP	Rce1 inhib	PABP polyA inh
Cc1ccc(COn2c(-c3ccc(Cl)cc3)nc3ccc([N+](=O)[O-])cc32)cc1	-25	-164	9	53	-4	-7	i	-3
O=C(Nc1ccc2c(c1)OCCO2)c1coc2ccccc2c1=O	.	10	7	-7	-9	-6	i	1
CCCS(=O)(=O)Nc1ccc2cn[nH]c2c1	-11	-13	-5	-13	-1	4	i	-10
Cc1ccc(S(=O)(=O)N2CCC(C(=O)NNC(=O)c3ccc(F)cc3)CC2)cc1	.	12	-1	-1	3	5	i	-1
S=C(c1ccc(-c2ccccc2Cl)o1)N1CCOCC1	-17	.	12	1	-1	0	i	17
CC(C)(C)c1ccc(NC(=S)NCc2cccs2)cc1	.	.	-3	0	3	-7	i	-4
CCCCCC(O)CCC(=O)NNC1=CC(=O)CC(C)(C)C1 (stereo not given)	.	0	4	-8	4	4	i	-10
COc1ccc(C(=O)CSc2nccc(=O)[nH]2)cc1	-13	.	-9	4	0	-3	i	-1
Cc1cccc(/C=N/c2sc3c(c2C(=O)OC(C)(C)C)CCN(C)C3)c1O	.	.	4	8	-5	-3	i	-7
N#C/C(=C\c1cccnc1)C(=O)Nc1ccc(O)cc1F	-7	-13	5	-33	15	11	i	8
Cc1ccc(-c2nnc3n2CCCCC3)cc1	-17	.	-5	-6	-1	0	i	-6
O=C(COc1ccccc1C(=O)NCC1CCCO1)Nc1ccc(Cl)cc1Cl (stereo not given)	-11	-2	-1	.	-1	-5	i	-2
O=C(O)c1ccc(Cn2cnc3sc4c(c3c2=O)CCCC4)cc1	-4	0	-4	-5	3	5	i	5
COCC(=O)N=Nc1c(O)[nH]c2ccccc12	0	3	-7	-5	2	2	i	-19
CCCCCCC(C)n1[nH]c(=O)c2c(C)cc(=O)[nH]c21 (stereo not given)	-7	13	-2	-10	-5	-28	i	-2
CCn1ccnc1C(O)c1cccc2ccccc12 (stereo not given)	-14	-22	5	-10	1	1	i	2
Cc1c(C(=O)O)oc2ccc(S(=O)(=O)NCc3ccccc3)cc12	13	-18	-2	0	2	5	i	-5
COCCCN1C(=O)N(c2ccc(F)cc2)C(=O)C1CC(=O)Nc1ccc(OC)cc1 (stereo not given)	7	3	-3	-4	0	1	i	10
O=C(NC1CCCCC1)c1cc(-c2ccco2)on1	-8	.	-5	-9	-6	1	i	5
Cc1nc2sc(C(c3ccco3)N3CCC(C)CC3)c(O)n2n1 (stereo not given)	-6	-14	-11	3	1	5	i	3
CCCCNC(=O)CCC(=O)Nc1ccc2nc(N3CCOCC3)cc(C)c2c1	-21	18	-6	-4	7	1	i	-2
O=C(CCc1nnc(CCCCc2ccccc2)o1)NCCN1CCOC1=O	.	-18	-7	-16	0	5	i	4
CCOC(=O)c1oc2ccccc2c1CN1CC(C)OC(C)C1 (stereo not given)	-3	-20	-2	-17	1	1	i	-3
Cc1ccc(C(=O)N2CCCCCC2)cc1S(=O)(=O)N1CCOCC1	-5	4	4	-14	-3	1	i	0
COc1ccc(C(=O)NCCSc2ccccn2)cc1	-36	.	-12	-15	0	2	i	4
Cc1ccc(N2CC(O)(c3cccs3)[N+]3=C2CCCC3)cc1 (stereo not given)	.	-3	-5	31	-5	-5	i	31
COc1ccc(Cn2c(CCC(=O)Nc3ccccc3OC)nc3cccnc32)cc1	-16	-27	2	-14	0	4	i	21
CC(C)c1ccc(N)c(S(=O)(=O)O)c1	.	6	10	-28	-5	1	i	10
Cc1ccc(CCNC(=O)C2CCCN(S(C)(=O)=O)C2)cc1 (stereo not given)	-6	-2	5	-7	-3	-4	i	-2
COc1ccc(NS(=O)(=O)c2cn(C)c(=O)n(C)c2=O)cc1	-14	1	-6	-10	2	5	i	-10
O=C(NCCNC(=O)c1cc(OCC(F)(F)F)ccc1OCC(F)(F)F)Nc1ccc(Cl)cc1	.	47	-2	14	.	.	i	0
CCC(C)N(C)Cc1cccc(C2(O)CCN(S(=O)(=O)c3ccc(F)c(C)c3)CC2)c1 (stereo not given)	.	-9	-3	1	-1	6	i	1
Cc1cc(C)nc(NC(N)=NCCc2ccccc2)n1	-15	-118	.	.	1	-3	.	.
O=C(O)c1cc(NCc2c(F)cccc2Cl)ccc1N1CCOCC1	-15	-44	-16	-14	-4	5	i	12
COCCNC(=O)c1onc(CS(=O)(=O)c2cc(C)cc(C)c2)c1C(=O)NCCOC	-5	-13	.	8	1	3	i	.
COc1ccccc1NC(=S)NC(=O)CCc1ccccc1	-22	14	-2	-10	0	0	.	10

3 compounds from above, sorted by the value under UUG fidelity, ascending.
SMILES	UUG fidelity	Env fusion inh	MT1-MMP act inh	MT1-MMP act inh RFP	Rce1 inhib
COc1ccc(C(=O)NCCSc2ccccn2)cc1	-36	.	0	2	i
Cc1cc(C)nc(NC(N)=NCCc2ccccc2)n1	-15	-118	1	-3	.
Cc1ccc(CCNC(=O)C2CCCN(S(C)(=O)=O)C2)cc1 (stereo not given)	-6	-2	-3	-4	i

Next results follow.
SMILES	UUG fidelity	Env fusion inh	eIF4H inh	CSC inhib	MT1-MMP act inh	MT1-MMP act inh RFP	Rce1 inhib	PABP polyA inh
Cc1cccc(NC(=O)C2C3C=CC(O3)C2C(=O)O)c1 (stereo not given)	.	.	-13	-9	.	.	i	-4
Cc1cc(NC(=O)c2cnn3c(C(F)F)cc(-c4ccccc4)nc23)no1	-7	-123	-5	1	1	-1	i	4
Cc1ccc(OC(=O)c2sc3ncn(C)c(=O)c3c2C)cc1	-2	-23	1	-6	2	4	i	-1
CCn1ncc(/C=C2/SC(=S)NC2=O)c1C	.	8	9	-2	1	5	i	-2
CC(OC(=O)C1CCCC1)C(=O)Nc1ncc(Cl)cc1Cl (stereo not given)	-8	3	.	-18	-4	0	.	.
Nc1c(C(=O)N/N=C/c2ccc(OCc3ccccc3)cc2)cnn1-c1ccccc1	1	3	8	-5	6	5	i	-19
CNS(=O)(=O)c1cccc(C(=O)OCC(=O)N2CCc3ccccc3C2)c1	-17	-59	-10	13	-1	-1	i	4
CC(C)C(C)(C#N)NC(=O)COC(=O)C1CCN(S(=O)(=O)c2ccc3c(c2)OCCO3)CC1 (stereo not given)	6	-7	.	.	-2	1	.	.
CCN(CC)C(=O)CSc1nc2ccc(NC(=O)CSc3nnc(N)s3)cc2s1	-22	.	30	-6	2	-9	i	12
Cc1nc2ccc(C(=O)N/N=C/c3ccc(O)cc3)cc2[nH]1	-14	17	1	4	-2	-1	.	3
Cc1cc(S(=O)(=O)N(Cc2ccccc2F)C2CC2)ccc1-n1cnnn1	-29	8	-13	12	4	-9	i	-3
CC(O/N=C/c1ccc(OC(F)F)cc1)C(=O)Nc1cccc(S(=O)(=O)N2CCOCC2)c1 (stereo not given)	-21	?	9	-22	0	1	i	-1
CCOc1ccc(S(=O)(=O)N2CCOCC2)cc1NC(=O)CN1C(=O)NC(CC)(c2ccccc2)C1=O (stereo not given)	-10	-8	-13	-23	-1	-2	i	-8
O=C(O)CCc1ccc(-c2ccccc2)n1CC(=O)Nc1cccc(C(F)(F)F)c1	-4	9	-2	-9	-1	-1	i	1
COC(=O)CNC(=O)CNC(=O)Nc1ccccc1Cl	-8	-61	-1	-8	3	4	i	-2
CCOC(=O)CC1=C(C(=O)OCC)C(c2cc(OC)c(OC)cc2OC)C(C#N)=C(N)O1 (stereo not given)	-3	-42	2	4	-6	-4	i	11
Cn1c(=O)n(Cc2ccccc2Cl)c2ccccc21	-6	-15	-8	-8	8	6	i	-3
Cc1ccccc1-c1nc(CS(=O)(=O)CC(=O)N2CCCCC2)c(C)o1	-3	8	-18	-8	1	0	i	1
N/C(CCCN1CCCCC1)=N/O	-11	.	-1	-15	-3	-2	i	-1
CNC(=O)CSc1nnc(-c2ccco2)n1-c1cc(C)ccc1C	5	-15	-12	0	1	0	i	-5
N#Cc1ccc(-c2cn(-c3ccccc3)c3[n+]2CCCS3)cc1	.	10	-5	-21	4	4	i	-3
CC(C)NC(=O)COC(=O)c1cc(=O)[nH]c2ccccc12	12	.	2	-7	4	5	i	-9
NC(=O)C1CCCN(C(=O)c2ccc(S(=O)(=O)N3CCCCCC3)cc2)C1 (stereo not given)	10	33	.	.	3	-1	.	.
O=C(CNC(=O)Cc1ccccc1)NCC(=O)OCc1ccc(C(=O)c2ccccc2)cc1	-17	.	5	.	1	8	i	-6
NC(=O)c1ccc(NC(=O)COC(=O)CNC(=O)c2sc3ccccc3c2Cl)cc1	-15	.	.	-2	-1	3	.	.
COc1ccc(S(=O)(=O)N2CCCOC2CNC(=O)C(=O)NCCCN2CCOCC2)cc1 (stereo not given)	3	-6	-3	11	3	3	i	10
Cn1c(=O)c2c(nc(Br)n2C/C=N/NC(N)=S)n(C)c1=O	-16	5	-1	3	3	-1	i	5
O=C(O)c1ccccc1-c1nc2ccccc2n1-c1ccccc1	.	3	3	16	-7	1	i	3
Cc1cc(C)nc(N2CCC(C(=O)NC3CCCc4ccccc43)CC2)n1 (stereo not given)	2	-5	-5	.	15	11	i	-1
Cc1ccc(S(=O)(=O)c2c(C)nn(C(C)(C)C)c2OC(=O)C(C)(C)C)cc1	0	.	-14	24	-3	-11	i	0
COc1ccc(S(=O)(=O)/N=C2/NC(=O)/C(=C\c3cc(OC)c(OC)cc3[N+](=O)[O-])S2)cc1	-23	40*	-2	-5	-6	1	i	3
COC(=O)c1ccc(NC(=O)c2cccc(N3C(=O)C4C5C=CC(C6CC56)C4C3=O)c2)cc1 (stereo not given)	-14	64*	-7	15	1	-29	i	-1
CCOC(=O)N1CCN(C(=O)CS(=O)(=O)c2cn(Cc3ccccc3C)c3ccccc23)CC1	-14	.	4	-4	-3	-7	.	?
O=C(O)CC(NNC(=O)c1ccccc1)C(=O)Nc1cccc([N+](=O)[O-])c1 (stereo not given)	-19	-8	-13	-2	3	6	.	11
CCc1cccc(NC(=O)CCCn2c(=O)[nH]c3ccsc3c2=O)c1	-18	-1	-1	-5	1	3	i	-7
O=C(Oc1ccc(Br)cc1C(=S)N1CCCC1)c1ccccc1F	-27	-28	-2	1	3	0	i	-4
CCOC(=O)CC(NC(=O)c1cc2ccccc2oc1=O)c1cccc([N+](=O)[O-])c1 (stereo not given)	.	-11	-3	1	-11	-2	i	-2
COc1ccccc1NS(=O)(=O)c1ccc(C(=O)N2CC(C)OC(C)C2)cc1 (stereo not given)	-5	11	.	.	2	-5	.	.
CCN1C(=O)[C@H]2[C@@H](c3ccc(-c4cc(C(C)=O)cs4)cc3)N[C@@](Cc3ccccc3)(C(=O)OC)[C@H]2C1=O	-13	-13	.	.	-4	3	.	.
Cc1cccc(C)c1NC(=O)COC(=O)c1ccc2[nH]c3c(c2c1)CCCC3	-17	4	-2	.	1	-2	i	9
O=C1Cc2ccccc2C(=O)N1CCc1ccccc1	-89	7	-3	7	0	6	i	3
O=C(NCc1cccnc1)c1cc(C2CCCN(C(=O)c3ccc4c(c3)CCO4)C2)on1 (stereo not given)	-18	-22	.	.	-3	1	.	.
O=C(NCC1CCCO1)C(c1cccnc1)N(C(=O)Cc1cccs1)c1ccccc1 (stereo not given)	-15	.	1	1	-1	4	i	0
Cc1ccc(C2C(C#N)=C(N)Oc3nc(-c4ccccc4)[nH]c32)o1 (stereo not given)	-17	.	-1	-8	2	1	i	20
O=C(CN(c1ccccn1)S(=O)(=O)c1ccc(F)cc1)Nc1ccccc1	0	-4	22	-3	-2	0	i	-3
